gsp antagonist = antagonists of gsp mutant (McCune-Albright syndrome). Potency, µM (doses to about 76.9 µM), without a hit: at the highest dose activity change, negative = inhibition, actives largely listed as inhibitors. 0.4% of 340,000 active. AID 624288. gsp-mutant cells, cAMP HTRF, 30 min; control for the full effect not named in the record; active = falling curve of any shape with a large fitted effect; inconclusive = falling curve, mostly with a smaller effect; inactive = flat or rising curve; cell line not stated here;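 note: intracellular cAMP measured with PDE inhibitor Ro 20-1724 present during compound exposure; potency is the fitted concentration of half-maximal effect; % is set by controls: 0 for no effect and ±100 for the full control effect; nearly all actives have a fitted effect of over 65% in size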
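HTRF cAMP measurement after 30 min RT detection following 30 min, 37C compound treatment alongside […] (added as 300 uM solution) in G418-selected cells seeded at 2000/well and grown 16–24 h.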
D2 PAM = potentiates the human D2 dopamine receptor allosterically. potentiation, % (no concentration beside the values). DiscoveRx D2 beta-arrestin cells, luminescence, 90 min; 100% = 57 uM dopamine signal. P14416. AID 624464. 0.23% of 360,000 active; active = potentiation of 50% or more; inconclusive = 30% to 50%; inactive = 30% or less;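 note: compound concentration not given in the record; tested on top of an EC20 dose of dopamine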
Target sequence (P14416 whole entry, looked up): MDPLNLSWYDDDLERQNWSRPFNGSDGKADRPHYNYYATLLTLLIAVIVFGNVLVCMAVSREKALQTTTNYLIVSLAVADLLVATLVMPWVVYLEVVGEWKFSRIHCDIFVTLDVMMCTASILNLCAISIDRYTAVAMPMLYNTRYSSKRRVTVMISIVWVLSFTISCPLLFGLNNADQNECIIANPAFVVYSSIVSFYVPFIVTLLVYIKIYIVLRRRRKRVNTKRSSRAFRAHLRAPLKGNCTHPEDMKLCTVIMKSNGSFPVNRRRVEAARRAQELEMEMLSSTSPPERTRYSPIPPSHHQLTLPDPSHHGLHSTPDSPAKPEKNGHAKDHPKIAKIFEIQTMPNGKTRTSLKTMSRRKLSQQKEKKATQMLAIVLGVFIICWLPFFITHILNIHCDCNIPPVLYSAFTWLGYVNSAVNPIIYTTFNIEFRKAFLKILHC
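PathHunter D2 cells, attached overnight at 37 deg C, received compound in DMSO plus dopamine at EC20 (50 nM final) for 90 min at 37 deg C. Beta-arrestin recruitment was read as luminescence after 1 h with detection reagent at ambient temperature.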
CtBP-E1A blk = inhibitors of CtBP/E1A interaction; AlphaScreen GST-E1A/His-CtBP binding, 1536-well; active compounds read low; control for the full effect not named in the record; activity change, % (concentration not given with the values); 0.49% of 340,000 active; AID 651724; in the data active means activity change below about -65%; inconclusive means about -30% to -65%; inactive means above about -30%; note: % is set by controls: 0 for no effect and ±100 for the full control effect
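Homogeneous bead-based format: GST-tagged E1A captured on glutathione donor beads, His-tagged CtBP on nickel acceptor beads; compounds precede bead addition by 2 h at 37 °C.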
Six1-Eya2 inh = blocks human Six1 binding to Eya2; Q15475+O00167; AlphaScreen GST-Six1/His-Eya2 binding, biochemical; active compounds read low; control for the full effect not named in the record; activity change, % (concentration not given with the values); 0.56% of 360,000 active; AID 651725; in the data active = activity change below about -65%; inconclusive = about -30% to -65%; inactive = above about -30%; note: % is set by controls: 0 for no effect and ±100 for the full control effect
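Six1/Eya2 binding was read as AlphaScreen signal after compounds were pinned into GST-Six1 plus His-tagged Eya2 (5X stock 250/500 nM) in pH 8.0 Tris/NaCl/TCEP buffer, beads added, then incubated 1 h, 37 C, dark.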
D2 ag = activates the human D2 dopamine receptor. activation, % (no concentration beside the values). 0.084% of 360,000 active. P14416. DiscoveRx PathHunter D2 beta-arrestin, luminescence, 90 min; 100% = 57 uM dopamine signal; in the data active = activation above about 40%; inconclusive = about 15% to 40%; inactive = below about 15%; note: compound concentration not given in the record; the text of the record calls up to 30% inactive
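Agonist mode: compounds alone added to overnight-plated D2 PathHunter cells for 90 min at 37 C, with 57 uM final dopamine (EC100) defining full response. Beta-arrestin recruitment detected by chemiluminescent reagent, read after 1 h at ambient temperature.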
gsp ag = agonists of gsp mutant (McCune-Albright syndrome) | gsp mutant cells, cAMP HTRF, 30 min; control for the full effect not named in the record | Potency, µM (doses to about 76.9 µM), for the others: top-dose activation (cAMP increase), actives largely listed as activators | 0.13% of 340,000 active; active = well fitted activation curve with a large enough effect; inconclusive = small, poorly fitted or top-dose-only effect, or another doubt; inactive = no such curve, though single readings can be large or run the other way; cell line not stated here;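 note: phosphodiesterase inhibitor Ro 20-1724 added with compounds to block cAMP breakdown; potency is the fitted concentration of half-maximal effect; nearly all actives have a fitted effect of over 60% in size; about a fifth of the inactives were tested at one dose only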
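Cells in DMEM/10% FBS with G418 were pretreated with compounds in DMSO plus […] (300 uM stock) for 30 min at 37C. cAMP was measured by HTRF (cAMP-d2 plus anti-cAMP antibody-K) after 30 min at room temperature.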
Numbers without * were called inactive; ? = inconclusive; / = not tested or not shown; [ ] = another dose, or the depositor's remark.

SMILES	gsp antagonist	D2 PAM	CtBP-E1A blk	Six1-Eya2 inh	D2 ag	gsp ag
COc1ccc(NC(=O)c2ccc3c(c2)CCN3S(C)(=O)=O)cc1	/	-2	-18	7	-3.1	-9%
O=C(COc1ccccc1)OCC(=O)c1ccc(O)cc1O	13%	-1	-24	1	-0.5	-14%
O=C(NCc1cccc(Cl)c1)c1cnn2c1NC(c1ccco1)CC2C(F)(F)F (stereo not given)	-2%	-10	1	-4	1.6	-1%
CCOC(=O)c1nnn(-c2nonc2N)c1CSc1ccc(C)cc1	-4%	-5	3	2	0.1	6%
CCCn1cnnc1CNC(=O)C1CCC(=O)N(CCc2ccc(OC)cc2)C1 (stereo not given)	13%	-2	5	1	-7.3	33%
COC(=O)C1=C(C)NC(=O)C1(Nc1ccc(Cl)cn1)C(F)(F)F (stereo not given)	4%	3	2	7	1.0	-5%
CC(NCc1ccco1)C(=O)N1CCc2ccccc2C1 (stereo not given)	6%	-8	5	-1	-0.3	4%
OCC[C@H]1C[C@H](O)[C@@H](O)[C@@]2(CCCO2)O1	6%	-4	8	2	-1.0	/
COc1ccccc1CNc1nc(NCC2CC2)nc2ccsc12	/	-12	-7	-14	-3.3	/
COc1ccc(N2CC(C(=O)N[C@@H](CC(C)C)C(=O)NC3CCCC3)CC2=O)cc1 (stereo not given in full)	3%	-2	5	0	2.5	16%
Cc1cccc(CNC(=O)c2ccc3c(c2)N(C)CCS3)c1	-12%	-9	-3	-15	-3.3	?
CCN1CCN(C(CNS(=O)(=O)c2ccccc2)c2ccccc2)CC1 (stereo not given)	4%	-13	1	0	-5.8	-13%
CCOc1ccccc1C(=O)NCC(=O)Nc1ccc2c(c1)OCO2	-14%	11	2	0	-1.5	2%
Cc1ccc(C(=O)NCCc2c[nH]c3ccccc23)c(C)c1	1%	-10	-13	-1	-4.2	17%
S=c1[nH]c(-c2ccccc2)cs1	-16%	-16	1	-25	4.7	3%[15.4 µM]
COC(=O)Cc1ccc(NC(=S)NCc2ccc(Cl)cc2)cc1	3%	28	1	-4	2.1	-35%[inhibitor]
Cc1ccc2occ(-c3nn[nH]n3)c(=O)c2c1	-16%	-3	-7	0	-4.5	?
CCCCC1=CC2=C(c3ccco3)C(=O)C(C)(OC(=O)c3ccc(OC)cc3)C(=O)C2=CN1Cc1ccc2c(c1)OCO2 (stereo not given)	6%	-16	-29	-28	-0.1	/
O=C(CN1C(=O)NC2(CCCC2)C1=O)NCc1cccc(Cl)c1	-14%	-2	2	3	1.2	-22%
Cc1ccc(C)c(Cn2nc3c4ccccc4n(Cc4ccccc4)cc-3c2=O)c1	-3%	-6	-8	-8	-3.7	7%
CCOC(=O)C1=NN2C(O)C3(C)CC(C(=O)OCC)=NN3C(O)C2(C)C1 (stereo not given)	/	-10	-26	5	-9.8	?
CC(=O)Nc1ccc2nc(-c3cccs3)[nH]c2c1	-2%	-1	-22	-18	0.3	?
COCCNc1c(-c2ccc(O)cc2)nc2ccc(Cl)cn12	-3%[15.4 µM]	13	-10	-6	3.3	20%
CC(C)Cn1c2c(c(=O)[nH]c1=O)C(C(F)(F)F)(C(F)(F)F)N=C(CCC1CCCCC1)N2	-7%	-1	6	1	2.0	-2%[15.4 µM]
COc1nc(NCc2cccnc2)nc(OC)n1	-1%	4	11	0	-1.3	17%
Cc1ccc(C)c(N(CC(=O)N(C)C)S(C)(=O)=O)c1	3%	-3	-1	3	-1.8	-38%[inhibitor]
CCn1c(SCC(=O)NCC2CCCO2)nnc1-c1ccc(Cl)cc1 (stereo not given)	10%	-5	7	-2	-3.5	6%[15.4 µM]
CC(Sc1nnc(N)s1)C(=O)Nc1ccc(N2CCOCC2)cc1 (stereo not given)	-1%	-8	-3	4	2.4	2%
Fc1ccc(CNc2ncccn2)cc1	6%	0	6	3	-4.6	8%[15.4 µM]
CCN1C(=C2C(=O)c3ccccc3C2=O)C=Cc2ccccc21	6%	-2	-4	-1	-3.1	2%
COc1ccc(Nc2nc(NCc3ccco3)nc(N/N=C/c3ccc(O)cc3)n2)cc1	?	-14	-17	-17	-3.5	-6%
O=C(O)c1cc(O)ccc1NC(=O)c1cccc2ccccc12	-17%	17	0	-1	2.6	7%[15.4 µM]
OC(CNc1nc(C(F)(F)F)nc2ccccc12)c1ccccc1 (stereo not given)	-2%	4	40	15	4.7	3%[15.4 µM]
S=C(NCC1CCCCC1)Nc1cccnc1	-9%	-10	18	12	0.8	-8%
COCC(=O)NC1(c2nnnn2CCOC(=O)Nc2ccc(Cl)cc2)CCCCC1	/	6	-20	-2	0.0	5%[15.4 µM]
O=C(OCC(=O)N1CCN(c2ccccc2)CC1)c1ccc(Cl)nc1	7%	5	7	-5	-3.4	22%[15.4 µM]
CC(C)CCCN1C(Nc2ccccc2)=NC[C@@H]1C	10%	-13	2	0	-1.2	-20%
COc1ccc(CN2CCN(Cc3c[nH]c4ccccc34)CC2)cc1	8%	-16	-14	-6	3.3	14%
Cn1c(CSc2nc3ccccc3s2)nnc1SCC(=O)NCCCN1CCOCC1	17%	-3	2	6	-0.2	1%
COCCNC(=O)CCCn1c(=O)c2ccccc2n(Cc2ccccc2C#N)c1=O	-8%	-1	13	6	0.3	-2%

Structures above with a furan ring, fused or not, in the order listed:
SMILES	gsp antagonist	D2 PAM	CtBP-E1A blk	Six1-Eya2 inh	D2 ag	gsp ag
O=C(NCc1cccc(Cl)c1)c1cnn2c1NC(c1ccco1)CC2C(F)(F)F (stereo not given)	-2%	-10	1	-4	1.6	-1%
CC(NCc1ccco1)C(=O)N1CCc2ccccc2C1 (stereo not given)	6%	-8	5	-1	-0.3	4%
CCCCC1=CC2=C(c3ccco3)C(=O)C(C)(OC(=O)c3ccc(OC)cc3)C(=O)C2=CN1Cc1ccc2c(c1)OCO2 (stereo not given)	6%	-16	-29	-28	-0.1	/
COc1ccc(Nc2nc(NCc3ccco3)nc(N/N=C/c3ccc(O)cc3)n2)cc1	?	-14	-17	-17	-3.5	-6%

Single records, from the list above. Screens in order: gsp antagonist	D2 PAM	CtBP-E1A blk	Six1-Eya2 inh	D2 ag	gsp ag
Profile of COc1nc(NCc2cccnc2)nc(OC)n1 : -1%	4	11	0	-1.3	17%
Profile of O=C(O)c1cc(O)ccc1NC(=O)c1cccc2ccccc12 : -17%	17	0	-1	2.6	7%[15.4 µM]
Profile of CC(Sc1nnc(N)s1)C(=O)Nc1ccc(N2CCOCC2)cc1 (stereo not given) : -1%	-8	-3	4	2.4	2%

(more compounds)
SMILES	gsp antagonist	D2 PAM	CtBP-E1A blk	Six1-Eya2 inh	D2 ag	gsp ag
COC(=O)COc1ccc(S(=O)(=O)Nc2ccccc2SC)cc1	-4%	-13	4	-2	-1.3	4%
CCN1C(=O)/C(=C\c2nc3ccccc3c(=O)n2CC)c2ccccc21	-6%	-4	-23	-2	2.5	3%[15.4 µM]
CSc1nc2cc(C)nn2c(-c2ccccc2)c1C#N	17%	0	0	1	-1.0	-13%
COc1ccc(NC(=O)C(CC(C)C)NC(=O)C2CCC(C)CC2)cc1 (stereo not given)	-29%	-2	-9	2	-0.9	12%[15.4 µM]
Cc1ccccc1S(=O)(=O)Nc1nc2ccccc2nc1Cl	8%	2	5	10	-1.6	11µM*
O=C(NC1CCCC1)c1ccc(Cl)s1	-4%	-14	3	4	-4.9	0%
Cc1cccc(N/C=C(\[N+](=O)[O-])S(=O)(=O)c2ccccc2)c1	13%	-5	-23	0	3.0	-8%[15.4 µM]
CCOC(=O)C1=C(C)N=c2s/c(=C\c3cccn3C)c(=O)n2C1c1cccc(OC)c1OC (stereo not given)	-3%	10	11	0	-2.0	-37%[inhibitor]
CCN(CC)C(=O)C1=C(C)NC(=S)NC1c1ccc(C)s1 (stereo not given)	/	-2	0	6	0.1	23%[15.4 µM]
O=C(NCc1ccco1)/C(=C\c1ccccc1)NC(=O)c1ccccc1	1%	-3	3	9	2.3	11%
O=C1CN(O)C=C2N=c3ccccc3=C2N1c1ccc([N+](=O)[O-])cc1	-3%	103*	/	-8	-0.1	-42%[inhibitor]
O=C(NCCCn1ccnc1)/C(=C/c1cccs1)NC(=O)c1ccco1	-10%	-5	0	8	1.6	-51%[inhibitor]
C/C(=N\NC(=O)c1nc2ccccn2c1C)c1ccco1	5%	6	-1	-1	-4.4	-5%[15.4 µM]
Cc1cc(C)nc(NC(=O)c2c(F)c(F)c(F)c(C(=O)Nc3cc(C)cc(C)n3)c2F)c1	-16%	-10	-11	-3	-4.0	3%
Nc1nc(SCc2cccc([N+](=O)[O-])c2)n[nH]1	14%	-6	6	3	-1.2	-2%
O=C(Nc1ccc(N2CCOCC2)cc1)c1cnsn1	0%	-9	/	6	-3.5	-13%
CSc1cccc(NC(=O)CCCn2c(=O)c3cccn3c3cccnc32)c1	-1%	-3	/	?	-4.8	-1%
O=C(c1ccc(OC2CCN(CCO)CC2)cc1)N1CCCC1	9%	1	-2	11	-2.7	1%[15.4 µM]
Cc1cc(C)n(C(=O)CN(C)S(=O)(=O)c2ccc([N+](=O)[O-])cc2)n1	11%	0	-17	-17	?	?
C=CCn1c(O)c(N=NC(=S)Nc2ccccc2C)c2cc(S(=O)(=O)N3CCOCC3)ccc21	-10%	14	-18	-11	15	22%[15.4 µM]
Cc1c(-c2ccnc3cc(C(=O)O)nn23)cnn1C	15%	-3	1	-12	-2.9	-1%[15.4 µM]
COc1ccc(NCc2nc3ccccc3n2CCOc2ccccc2)cc1	?	-8	-20	?	-1.1	-36%[inhibitor]
COc1cccc(C2CC(c3ccc(Cl)cc3)n3nc(N)nc3N2)c1 (stereo not given)	-1%	-3	-13	0	-3.1	-8%
Cc1nc(-c2ccc(S(=O)(=O)N3CCN(c4cccc(C)c4C)CC3)cc2)co1	-10%	-18	-8	-9	-11	20%
Cc1n[nH]c(C)c1S(=O)(=O)N1CCOCC1	1%[15.4 µM]	-11	13	6	0.4	-6%
COC(=O)c1ccc2c(=O)sc(N3CCC(C(N)=O)CC3)nc2c1	-2%	-10	6	5	-3.5	11%
C/C(CCc1ccccc1)=N\NC(=O)c1ccccc1[N+](=O)[O-]	11%	-2	9	1	0.0	22%
CC(=O)N1N=C2c3ccccc3CCC2C1c1ccc(F)cc1 (stereo not given)	9%	-2	4	5	-1.8	-9%[15.4 µM]
O=C(OCC(=O)N1CCOCC1)c1ccccc1O	8%	2	5	1	-3.1	?
CN1C(=CC=C2C=C(I)C(=O)C(I)=C2)C(C)(C)c2ccccc21	-10%	-1	0	7	-1.9	13%[15.4 µM]
CC1(C(=O)Nc2cccc(C#N)c2)CCN1C(=O)C1(c2ccccc2)CC1 (stereo not given)	/	-8	5	2	-3.2	/
Cc1c(C(=O)NCc2ccccc2CN2CCCC2)oc2ccccc12	8%	3	-23	-8	-3.8	-7%[15.4 µM]
OCc1cc(-c2ccc(Cl)c(Cl)c2)on1	11%	1	11	-7	-8.0	7%[15.4 µM]
Cc1cccc(C)c1OCCCCN1CCNCC1	7%	-11	-1	-2	-6.2	3%
COc1ccccc1C(=O)NCCC(=O)NCC1CCCO1 (stereo not given)	8%	-3	/	-2	-1.4	-18%
CSc1nc(SCC(=O)NCc2ccco2)c2c3c(sc2n1)CN(C)CC3	1%	1	0	-4	-1.4	-16%
O=C(NCc1cccc(C(F)(F)F)c1)c1cc(Cl)ccc1Cl	-9%	0	/	35	8.2	2%
